# Compound activity from PubChem.
# Calb FLC: C. albicans growth inhibition with fluconazole, primary screen, CaCi-2 strain, Alamar Blue fluorescence. C. albicans CaCi-2 (fluconazole-resistant clinical isolate) + fluconazole, 48 h. growth inhibition, % (no concentration beside the values). actives 0.57% (n = 300,000). AID 1979, 2009;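 active means most replicates above 75%; inconclusive means exactly half above 75%; inactive means most below 75%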;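 further: all wells also contain fluconazole at 8 µg/ml as a sub-toxic cotreatment; 0% = median of DMSO wells and 100% = median of geldanamycin control wells; wells of about 8 µL received 7.5 nL stock; the first replicate is given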
# Ecoli rRNA inh: reduced GFP signal of wild-type E. coli, primary screen, bacterial rRNA inhibitor project, GFP/RFP fluorescence, OD600, single point; E. coli WT GFP vs humanized-ribosome RFP mutants, 24 h; stronger effect = lower value; DMSO median 0, no signal -100; GFP signal change (wild-type ribosome), % (concentration not given with the values); actives 1.6% (n = 350,000); AID 720706, 2013;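 active means significant combined selectivity score with lowered wild-type GFP, culture density cut under 30%, mutant RFP and density less affected; inactive means any of these conditions unmet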; further: one replicate is shown; some compounds called inactive have numbers as strong as hits
# T cruzi inh: inhibitors of intracellular T. cruzi growth, primary screen, luminescence, NIH3T3 host cells; T. cruzi beta-gal in NIH3T3, 90 h; inhibition, % (test concentration not listed); actives 1.4% (n = 300,000); AID 1885, 2009;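 active means mean inhibition across valid replicates above about 55%, limit read from the data; inconclusive means mean below that limit but half or more replicates reach it; inactive means mean below it, under half of replicates reach it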;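 further: signal also drops with host cell toxicity which is not excluded here; 0% = plate median of DMSO wells and 100% = zero luminescence signal; higher percent means less beta-gal luminescence so fewer parasites; stock transfer was 50 nL into about 50 µL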
# RanGTP-Imp inh: inhibitors of RanGTP-importin-beta interaction, primary screen, biochemical, FRET, CFP-Ran, YFP-importin-beta, homogeneous. Ran GTPase (GTP-bound) - importin-beta complex. cell-free CFP-Ran/YFP-importin-beta FRET ratio. inhibition, % (concentration not given with the values). actives 1.1% (n = 300,000);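 active means most replicates above 15%; inconclusive means exactly half above 15%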;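 further: 0% = DMSO wells and 100% = Ran loaded with GDP instead of GTP; wells of about 40 µL received 100 nL stock; the first replicate is given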
# AF4-AF9 inh: inhibitors of AF4 peptide binding to AF9, primary screen, biochemical, AlphaScreen, biotin-AF4 peptide, FLAG-AF9, single point. Protein AF-9 (Homo sapiens), P42568. inhibition, % at 10 µM. actives 0.47% (n = 350,000). AID 651704, 2012;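 active means every replicate reaching a set inhibition limit, whatever the replicate mean, cut at about 25% in these data; inconclusive means mean inhibition reaches that limit but some replicates miss it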;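 further: 0% = plate neutral control median and 100% = total signal loss; the record names both 10 and 1 µM as test concentration; the first replicate is given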
# Target sequence (P42568 whole entry, looked up): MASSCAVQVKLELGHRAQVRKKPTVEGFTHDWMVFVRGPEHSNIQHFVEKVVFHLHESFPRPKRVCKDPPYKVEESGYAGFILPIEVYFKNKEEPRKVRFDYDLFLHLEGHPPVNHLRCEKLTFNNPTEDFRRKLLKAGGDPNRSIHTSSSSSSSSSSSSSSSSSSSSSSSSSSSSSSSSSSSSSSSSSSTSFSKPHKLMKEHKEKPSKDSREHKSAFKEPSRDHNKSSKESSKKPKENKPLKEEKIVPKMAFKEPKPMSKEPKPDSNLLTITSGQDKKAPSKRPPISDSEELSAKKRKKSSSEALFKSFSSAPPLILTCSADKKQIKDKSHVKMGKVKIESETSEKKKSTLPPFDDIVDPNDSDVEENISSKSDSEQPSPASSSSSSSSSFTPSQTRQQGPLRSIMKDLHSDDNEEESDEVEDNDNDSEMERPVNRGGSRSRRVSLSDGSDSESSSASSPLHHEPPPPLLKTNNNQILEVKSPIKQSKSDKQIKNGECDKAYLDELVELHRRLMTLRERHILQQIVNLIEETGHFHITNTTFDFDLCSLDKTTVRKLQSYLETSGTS
# Beta cell apopt: inhibitors of cytokine-induced beta cell apoptosis, primary screen, luminescence | INS-1E cytokine-induced death, ATP luminescence, 48 h; percent of positive-control rescue, neutral wells zero | protection from apoptosis, % (no concentration beside the values) | actives 0.8% (n = 300,000) | AID 435005, 2010;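 active means all replicates at 75% or more, or half of them and the mean; inconclusive means half reach 75% but not the mean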;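 further: 0% = cytokine-treated negative control wells and 100% = positive control rescue; higher means more ATP so stronger rescue from cytokine killing; wells of about 40 µL received 100 nL stock; the first replicate is given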
# ALR H2O2 inh: inhibitors of human ALR sulfhydryl oxidase, primary screen, biochemical, H2O2 detection, HRP-luminol luminescence, single point. FAD-linked sulfhydryl oxidase ALR (Homo sapiens), P55789. purified ALR, DTT oxidation. inhibition, % (test concentration not listed). actives 3.8% (n = 290,000). AID 485317, 2010;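 active means mean and each replicate at 75% or more; inconclusive means only one of the two met; inactive means neither met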;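 further: stock transfer was 7.5 nL into about 7.5 µL; 0% = neutral wells and 100% = wells with inactivated enzyme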
# Target sequence (P55789 whole entry, looked up): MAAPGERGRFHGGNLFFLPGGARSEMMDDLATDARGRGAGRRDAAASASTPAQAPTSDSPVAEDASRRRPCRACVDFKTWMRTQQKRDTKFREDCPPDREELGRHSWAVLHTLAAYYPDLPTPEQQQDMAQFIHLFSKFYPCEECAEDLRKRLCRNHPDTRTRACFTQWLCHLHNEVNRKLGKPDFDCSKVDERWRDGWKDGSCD
# FGF22 binding: binders of human FGF22 protein, primary screen, FGF22 synaptogenesis inhibitor project, biophysical, thermal shift, single point. calls only at 9.99 µM. actives 1.5% (n = 340,000). Fibroblast growth factor 22 (Homo sapiens), Q9HCT0. recombinant FGF22 thermal shift, SYPRO orange fluorescence; percent of sucrose octasulfate shift, DMSO zero;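 active means melting point raised past a set limit in the mean and every replicate; inconclusive means no clear call; three in four hits are not shown here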
# Target sequence (Q9HCT0 whole entry, looked up): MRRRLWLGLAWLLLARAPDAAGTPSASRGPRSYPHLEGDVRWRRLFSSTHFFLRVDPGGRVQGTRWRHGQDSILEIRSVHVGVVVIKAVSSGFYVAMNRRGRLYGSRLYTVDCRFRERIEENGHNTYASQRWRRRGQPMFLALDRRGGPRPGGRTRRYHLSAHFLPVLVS
# Ecoli rRNA inh OD600: second read-out of Ecoli rRNA inh, no call of its own (marks repeat the call); OD600 change, %; measured here: OD600 growth;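 optical density of the mix in the first replicate; 0 = DMSO median and -100 = no signal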
# Ecoli rRNA inh RFP: recorded beside Ecoli rRNA inh, whose call it bears; RFP signal change, %; measured here: RFP humanized mutant strains;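 first replicate; 0 = DMSO median and -100 = no signal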
# Active calls of the source: *; i = inactive; ? = inconclusive; . = not tested or not shown; & = joins results of further samples.
SMILES,Calb FLC,Ecoli rRNA inh,Ecoli rRNA inh OD600,Ecoli rRNA inh RFP,T cruzi inh,RanGTP-Imp inh,AF4-AF9 inh,Beta cell apopt,ALR H2O2 inh,FGF22 binding
O=C1NC(=O)/C(=C/c2cc3c(cc2Br)OCO3)S1,-4,-45,-67,-9.7,-21,0.2,-3.8,14,96*,i
COc1cc2[nH]c3c(OC)ncnc3c2cc1OC,8,3,3,-2.1,8,4.1,-2.4,1,.,i
COC(=O)c1ccccc1NC(=S)NC(=O)c1ccc2c(c1)OCO2,63,13,12,5.2,-10,0.0,-1.9,-4,98*,i
CSc1cccc(CN2CCN(CCC(C)C)C(CCO)C2)c1 (centres undefined),-11,9,1,6.5,7,-0.2,7.6,-3,0,i
Cc1cc(OC(C)C)nc(NCc2ccccc2)n1,3,.,.,.,-2,-3.3,.,4,0,.
Cc1cccc(NC(=O)CS(=O)(=O)c2cn(C)c3ccccc23)c1,12,-5,-2,-0.6,-20,4.8,-2.1,-2,-2,i
CS(=O)(=O)N(CC(=O)N1CCN(Cc2ccccc2)CC1)C1CCCCC1,-2,.,.,.,4,-1.8,.,-2,-3,.
CCOc1ccc(Oc2ccccc2NC(=O)CCNC(C)=O)cc1,-3,16,17,-0.5,-13,-2.0,-1.3,-6,.,i
CC1=NOC(=O)/C1=C/c1ccc(O)cc1,-16,17,10,1.9,-11,-0.1,-1.8,-2,56,i
CN(C)C(=O)c1ccc2c3c(cccc13)CC2,1,-1,8,-0.7,6,-1.9,-1.8,-1,-26,i
COc1cc(/C=N/n2c(-c3n[nH]c4c3CCC4)n[nH]c2=S)ccc1O,-1,-2,-5,0.0,-17,-2.9,-3.3,2,99*,i
CC(C)[C@H](NC(=O)OCc1ccccc1)C(=O)OCC(=O)NC1CCCCC1,-3,.,.,.,7,2.3,.,1,.,.
O=C(COC(=O)c1cc[n+]([O-])cc1)Nc1cccc(F)c1,.,3,5,-2.2,.,.,0.4,-3,-12,i
Cc1cc(CNCc2cn(C)nc2-c2ccc(Oc3ccccc3)cc2)on1,-2,-8,-6,-0.8,14,3.8,-1.6,4,12,i
CC(C)CCNC(=O)c1onc(CSc2ccc(F)cc2)c1C(=O)NCCC(C)C,5,10,7,-3.9,39,?,-2.4,-5,-1,i
O=C(COC(=O)Cc1ccc(Cl)cc1Cl)Nc1ccc(OC(F)F)cc1,33,.,.,.,-23,8.8,.,-7,1,.
COc1ccc(C(=O)NCCCc2nc3ccccc3n2Cc2ccccc2C)cc1OC,4,-23,-65,0.8,-3,2.1,4.3,9,-54,i
COc1ccc(NC(=O)CN2CCc3ccccc3C2)cc1S(=O)(=O)N1CCOCC1,-2,10,10,6.7,10,-1.0,-0.2,3,1,i
COc1ccccc1NC(=O)C1=C(C)Nc2ncnn2C1c1cccs1 (centres undefined),21,.,.,.,-4,1.4,.,-4,11,.
COC(=O)CN(c1ccccc1F)S(=O)(=O)c1ccc(C)cc1,-37,-12,-15,1.6,-13,?,-1.0,.,-7,i
CC1(c2ccc(Cl)cc2Cl)NC(=O)N(CC(=O)N2CCN(C(=O)c3ccco3)CC2)C1=O (centres undefined),.,9,2,-0.3,.,.,0.5,-1,1,i
Cn1c(C(=O)NCCCN2CCN(c3cccc(Cl)c3)CC2)cc2c(=O)n(C)c3ccccc3c21,2,-23,-45,9.6,31,-6.7,1.3,8,-7,i
COc1ccc(/C(C)=N\O)cc1OC,-8,.,.,.,-4,3.5,0.3,2,-6,i
O=C(OCC(=O)N1CCc2ccccc2C1)c1ccc(F)cc1Cl,.,-34,-47,-3.1,.,.,-0.8,0,2,i
COC(=O)c1cc(OC)cc(O)c1C(=O)c1c(O)cc(C)cc1O,-5,-16,-16,-23,-9,-0.2,1.3,.,7,i
# Carrying on:
SMILES,Calb FLC,Ecoli rRNA inh,Ecoli rRNA inh OD600,Ecoli rRNA inh RFP,T cruzi inh,RanGTP-Imp inh,AF4-AF9 inh,Beta cell apopt,ALR H2O2 inh,FGF22 binding
CCc1ccc(C2C(C#N)=C(N)SC(N)=C2C#N)s1,7,.,.,.,-12,9.6,.,2,-3,.
CC(C)c1ccc(NC(=O)CN2C(=O)NC3(CCCC3)C2=O)cc1,-2,-1,2,-1.0,-10,-2.2,-1.8,.,-3,i
CC/C(C)=N/Nc1nc2sc3c(c2c(=O)[nH]1)CC(C)(C)OC3,-21,.,.,.,-6,-39,.,1,16,.
Fc1ccccc1-c1n[nH]c(=S)n1CC1CCCO1 (centres undefined),5,20,17,2.1,-7,2.0,-5.4,-1,9,i
CC1CN(S(=O)(=O)c2ccc(C(=O)NN3CCN(C)CC3)cc2)CC(C)O1 (centres undefined),-6,9,1,1.6,7,4.6,-12,-2,27,i
Fc1ccc(N2CCN(c3ncnc4nc[nH]c34)CC2)cc1,-1,2,1,-1.7,3,2.1,-0.9,-10,.,i
CC(NC(=O)Nc1ccc(F)cc1F)c1ccncc1 (centres undefined),3,.,.,.,4,8.5,.,5,-8,.
C=CCN(C(=O)c1csnn1)C(C(=O)NC1CCCC1)c1c(F)cccc1Cl (centres undefined),18,-21*,-14*,6.5*,4,5.3,4.2,-4,-3,i
Cc1ccnc(NC(=O)Cc2c(F)cccc2Cl)c1,7,-8,-10,-1.6,-13,?,-1.3,-3,11,i
Cc1cc(C)n(C(C)CC(=O)Nc2ccc(-c3ccno3)cc2)n1 (centres undefined),3,-16,-7,-1.0,-24,3.2,-1.6,.,15,i
COCCNC(=S)Nc1cc(S(=O)(=O)N2CCOCC2)ccc1N1CCCCC1,0,-13,-1,-0.2,16,1.5,0.7,-4,0,i
CC(C)C(=O)N(Cc1ccc(F)cc1)Cc1nc2ccccc2c(=O)[nH]1,-20,11,6,0.6,9,1.8,0.4,-2,14,i
CN(C)c1ccc(NC(=O)COC(=O)CNC(=O)c2cccs2)cc1,.,8,18,1.6,.,.,11,-7,96*,i
CCc1nnc(NC(=O)CSc2nc3c([nH]c4ccccc43)c(=O)n2CCOC)s1,.,9,6,-0.7,-2,.,-0.4,8,-2,i
COc1cc(C(=O)NNC(=O)Cc2ccc(S(=O)(=O)N3CCOCC3)s2)cc(OC)c1OC,6,8,6,-1.1,-9,1.0,-0.7,-3,4,i
CC(=O)Nc1cc2c(cc1[N+](=O)[O-])OCCO2,-20,2,7,0.7,-8,-0.6,-15,-13,-11,.
O=C(Cn1nnc2ccccc21)C1CC1,2,.,.,.,1,-1.3,.,-5,-27,.
COc1cc(NC(=O)c2cccnc2SC)cc(OC)c1OC,-17,6,6,-1.2,-18,3.3,-3.8,-2,-2,i
O=C(CN1CCC(O)(c2ccc3c(c2)OCO3)CC1)NC1CCCCC1,-7,4,13,-2.9,10,-2.4,-8.2,-4,.,i
CC(c1ccccc1)n1c(-c2ccccc2F)n[nH]c1=S (centres undefined),3,-50,-65,-19,-8,1.7,-3.3,.,21,i
C[C@H](CO)N1C[C@H](C)[C@@H](CN(C)CC2CCCCC2)Oc2c(NC(=O)C3CC3)cccc2C1=O,.,-1&-17,2&-17,0.7&-6.0,.,.,1.5&2.8,10,0,i
O=c1c2ccccc2ncn1CCCSc1ccc(Cl)cc1,-7,.,.,.,6,1.3,.,-2,-1,.
COc1ccc(CCNC(=O)CC(C)(C)CC2=NS(=O)(=O)c3ccccc3N2)cc1OC,-1,2,6,0.9,-11,0.5,1.1,-6,-4,i
CCCCn1c(N2CCCC2)nc2c1c(=O)[nH]c(=O)n2C,0,0,-2,1.1,0,3.0,1.2,3,26,i
Cc1ccc(-n2nc(C(=O)N/N=C/c3cccc(C(F)(F)F)c3)c3ccccc3c2=O)cc1C,1,.,.,.,-5,4.0,.,1,2,.
# More results follow:
SMILES,Calb FLC,Ecoli rRNA inh,Ecoli rRNA inh OD600,Ecoli rRNA inh RFP,T cruzi inh,RanGTP-Imp inh,AF4-AF9 inh,Beta cell apopt,ALR H2O2 inh,FGF22 binding
Cc1cc(C)nc(-n2nc(C)cc2NC(=O)CNC2CCCCC2)n1,-7,.,.,.,-2,0.9,.,7,-5,.
CC(C)NS(=O)(=O)c1ccc(OCC(=O)N2CCCC2)cc1,-6,.,.,.,8,4.1,.,-3,-3,.
CCOc1ccc(/C=C2/Sc3ccc(C(=O)NCC4CCCO4)cc3N(C)C2=O)cc1OC (centres undefined),-3,-19,-38,-2.4,-3,4.8,6.0,0,25,i
O=C(Cc1ccccc1)Nn1cnc2ccccc21,-2,.,.,.,-13,-0.9,.,-3,3,.
COc1ccc(C(=O)Nn2cnnc2)cc1OC,-4,15,5,1.3,0,2.4,-5.8,-4,-5,i
NC(=O)c1ccc(NC(=O)COC(=O)c2ccc3c(c2)OCCO3)cc1,-6,7,-1,-1.6,-14,1.2,1.8,0,-2,i
C[N+](C)(C)CCCN(Cc1ccc2c(c1)OCO2)C(=O)NC1CCCCC1,1,17,16,-3.4,-6,5.3,2.2,2,-2,i
Cc1nn(S(=O)(=O)c2cccs2)c(C)c1Sc1ccc([N+](=O)[O-])cc1,1,-13,-27,-6.4,27,-0.4,.,6,6,.
CCCn1cc(CN2CCC(N3CCC(C(=O)N4CCOCC4)CC3)CC2)c(C)n1,-13,15,8,-5.6,-3,1.5,0.5,.,.,i
Cc1ccc(NC2=NC(c3ccc(O)cc3)n3c(nc(C)cc3=O)N2)cc1 (centres undefined),-3,.,.,.,-8,1.3,.,0,-16,.
Cc1cccc(N2CCN(S(=O)(=O)c3c(C)[nH]c(C)c3C(=O)N3CCCC3)CC2)c1C,5,-10,-9,2.8,1,5.3,-5.3,-5,-11,i
CSc1ccc(CNc2cccc3ccccc23)cc1,18,-23,-31,8.2,0,2.1,-0.4,59,4,i
CCOC(=O)[C@@H]1[C@H]2COc3ccccc3[C@H]2N2C(=O)N(c3cccc(Cl)c3)C(=O)[C@]12C,.,-6,-12,3.4,.,.,-11,-4,-1,i
C[C@@H](NC(=O)C1(c2ccccc2)CCN(C(=O)OC(C)(C)C)CC1)C(=O)N[C@@H](Cc1ccccc1)C(=O)O,-1,10,12,6.1,-5,1.6,-1.3,-1,-2,i
S=C(NCCCn1ccnc1)Nc1ccc(Cl)cc1Cl,-7,-23*,-8.7*,-4.9*,3,?,1.2,5,0,i
CC(C)OCCCn1c(=NC(=O)c2ccncc2)c(C#N)cc2c(=O)n3ccccc3nc21,?,.,.,.,8,57*,.,3,97*,.
COc1ccc(NC(=O)c2cccc3c2C(=O)c2ccc(-c4ccc(F)cc4OCc4ccccc4)cc2S3(=O)=O)cc1,.,9,8,-2.2,.,.,-3.7,0,-3,i

# These rows are one share of the data; count on the stated rates, not on these rows.
